Assay outcomes: PubChem, several laboratories
TNAP inh hi DEA: inhibitors of human TNAP at high phosphate acceptor concentration. purified TNAP, CDP-star luminescence, 1 M DEA. 200,000 compounds, 0.03% hits. P05186. AID 1135. inhibition, % at 20 µM;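 active = over 50% inhibition of tissue-nonspecific alkaline phosphatase at 20 µM in the single-dose screen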;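 note: plate controls were DMSO wells for no effect and EDTA-quenched wells as full inhibition for full effect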
Target sequence (P05186 whole entry, looked up): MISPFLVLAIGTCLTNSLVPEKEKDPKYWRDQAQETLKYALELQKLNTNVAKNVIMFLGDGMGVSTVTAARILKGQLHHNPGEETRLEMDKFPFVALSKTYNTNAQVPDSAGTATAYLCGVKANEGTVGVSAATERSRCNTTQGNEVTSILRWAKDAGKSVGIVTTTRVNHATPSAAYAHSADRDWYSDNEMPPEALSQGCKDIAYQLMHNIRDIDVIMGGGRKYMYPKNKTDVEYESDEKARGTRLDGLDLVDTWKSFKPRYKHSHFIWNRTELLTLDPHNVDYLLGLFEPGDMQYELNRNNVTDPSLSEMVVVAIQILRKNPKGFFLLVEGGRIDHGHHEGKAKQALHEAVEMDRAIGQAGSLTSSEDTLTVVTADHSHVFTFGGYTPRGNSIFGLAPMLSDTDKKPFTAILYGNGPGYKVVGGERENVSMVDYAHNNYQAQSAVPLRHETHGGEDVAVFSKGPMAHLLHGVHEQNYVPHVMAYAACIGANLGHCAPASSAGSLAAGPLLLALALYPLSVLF
APP 5'UTR act: activates APP 5'UTR luciferase reporter; 190,000 compounds, 1% hits; SH-SY5Y APP 5'UTR luciferase reporter, luminescence; zero percent = DMSO vehicle wells; activation, % at 2 µM;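 active = activation above a set limit, based on mean plus 3 SD of controls, cut at about 140% in these data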; note: values of inactives mirror those of a sister screen read the other way
FLuc act counter: firefly luciferase counter-screen for stimulation assays. P08659. ATPlite luciferase biochemical, luminescence, 10 min; 0 = ATP-free wells, 1 = DMSO control. activation factor at 10 µM. 200,000 tested, under 10 active. AID 1027;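 active = luciferase activation factor, scaled between plate controls, of at least 2 with compound at 10 µM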
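Assay system – cell-free luciferase reagent · Medium – PBS-based ATP solution · Dosing – test compounds dosed from 2 mM stocks in 100% DMSO · Timing – 10 min, room temperature · Technique – light output (luminescence) · Measure – luminescence gain marking luciferase activators · Controls – No-ATP low control, compound-free enzyme-plus-ATP high control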
TNAP act hiacc: activators of human TNAP at high phosphate acceptor concentration; P05186; activation factor at 20 µM; 200,000 tested, under 10 active; purified TNAP, CDP-star luminescence, 1 M DEA, 30 min; stronger effect = higher value; 0 = EDTA background, 1 = DMSO-only activity;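 active = activation factor at least 2 at 20 µM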
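system = human TNAP | amount = enzyme diluted 1/800 final | reagent = 100 µM CDP-star substrate | signal = luminescent substrate turnover signal | dosing = one dose, 20 µM | benchmarks = EDTA negative control, DMSO positive control | measure = activation factor | timing = 30 min reaction, room temperature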
FLuc inhib CS: inhibits firefly luciferase, flagging false hits in luciferase inhibition screens | P08659 | ATPLite firefly luciferase biochemical luminescence, 10 min | inhibition, % at 10 µM | 200,000 compounds, 1.5% hits;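 active = inhibition above about 50% when tested at 10 µM, limit read from the data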
NF-kB neuron act: NF-kB expression increase, human neuronal cells; NF-kB reporter expression; stronger effect = higher value; fold change at 12.5 µM; 190,000 compounds, 1.6% hits; AID 1239; in the data active = fold change above about 3.3
TNAP inh noacc: inhibitors of human TNAP without phosphate acceptor. P05186. purified TNAP, CDP-star luminescence, 30 min. inhibition, % at 20 µM. 200,000 compounds, 0.26% hits. AID 1012;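 active = tissue-nonspecific alkaline phosphatase inhibition above about 50% at 20 µM in the single-dose screen, limit read from the data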;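 note: 0% = DMSO negative control and 100% = EDTA positive control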
bIAP activator: intestinal alkaline phosphatase (bovine) activation. 200,000 compounds, 0.17% hits. purified bovine IAP, CDP-star luminescence, 30 min; stronger effect = higher value; fold of DMSO-control signal, blank-subtracted. activation factor at 20 µM;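 active = activation factor of 2 or more at 20 µM, a signal rise over negative controls twice the positive control's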
Active calls of the source: *. The list is partial; rates above refer to the full screens.

1: CC(=O)c1c(C)[nH]c(C(=O)OCC(=O)N(C)C)c1C
2: COc1cc(C(=O)Oc2ccc3c(c2)OCC3=O)cc(OC)c1OC
3: c1ccc(-c2ccc3c(c2)c2c4n3CCN=C4CCC2)cc1
4: CCCCCOCC(O)CCC(=O)NN (stereo unspecified)
5: CCOc1ccc(/C=N/n2c(SC)nnc2-c2ccccc2)cc1OCC
6: CCCCC[n+]1ccn(-c2nc3ccccc3nc2[N-]S(=O)(=O)c2ccc(C)cc2)c1
7: CCOC(=O)Nc1sc(C(=O)N(C)C)c(C)c1C(=O)OCC
8: O=C(NCCN1CCOCC1)c1ccc(Cl)cc1[N+](=O)[O-]
9: CCCCn1c(SCC(N)=O)nc2ccc(N3CCOCC3)cc2c1=O
10: CC(C)c1ccc(N=c2c([N+](=O)[O-])nn(-c3ccc4c(c3)OCCO4)n2O)cc1
screen / no.	1	2	3	4	5	6	7	8	9	10
TNAP inh hi DEA	-4.0	-2.1	-2.7	0.7	-1.8	2.0	-0.7	0.4	5.1	5.0
APP 5'UTR act	15.0	-12.8	3.9	-6.9	11.6	-6.5	-5.3	14.0	4.1	4.3
FLuc act counter	1	1.1	1.1	1	1.1	1	1.1	1.1	1	1.1
TNAP act hiacc	1	1	1	1	1	1	1	1	0.9	0.9
FLuc inhib CS	0.7	-5.2	-5.8	-1.4	-5.0	0.0	-8.3	-6.9	-1.2	-5.8
NF-kB neuron act	1.49	1.05	0.98	1.53	5.54*	0.76	0.69	0.97	1.04	0.83
TNAP inh noacc	-9.0	-29.6	-4.7	-6.2	-2.7	-3.2	-9.5	-3.5	-4.0	1.6
bIAP activator	0.9	1	1	1	1	1.1	1	1.1	1.1	0.9

Another view of part of the listing above.
4: CCCCCOCC(O)CCC(=O)NN (stereo unspecified)
- TNAP inh hi DEA: 0.7
- APP 5'UTR act: -6.9
- FLuc act counter: 1
- TNAP act hiacc: 1
- FLuc inhib CS: -1.4
- NF-kB neuron act: 1.53
- TNAP inh noacc: -6.2
- bIAP activator: 1

5: CCOc1ccc(/C=N/n2c(SC)nnc2-c2ccccc2)cc1OCC
- TNAP inh hi DEA: -1.8
- APP 5'UTR act: 11.6
- FLuc act counter: 1.1
- TNAP act hiacc: 1
- FLuc inhib CS: -5.0
- NF-kB neuron act: 5.54*
- TNAP inh noacc: -2.7
- bIAP activator: 1

Next records follow:
11: O=C(Nc1ccccc1Cl)c1ccn[nH]1
12: COC(=O)c1cn(CC(=O)N2CCCCC2C)c2ccccc12 (stereo unspecified)
13: CC(=O)Nc1ccc(NCN2C(=O)[C@@H]3[C@H]4CC[C@H](C4)[C@@H]3C2=O)cc1
14: COc1ccc(NC(=O)N2CCC(C(=O)c3ccc(F)cc3)CC2)cc1
15: Cc1ccc(-n2nc(-c3ccc(N)cc3)cc2N)cc1
16: O=C(c1ccco1)N(Cc1ccc([N+](=O)[O-])cc1)c1ccc(Br)cc1
17: CCc1ccc2nc(NC(=O)c3cc(C)on3)sc2c1
18: COc1ccc(C2C(C(C)=O)=C(O)C(=O)N2CCCn2ccnc2)cc1 (stereo unspecified)
19: O=C(OCC(=O)N1CCOCC1)c1ccc(Cl)nc1
20: Cc1[nH]n(-c2ccccc2)c(=S)c1C=Nc1cccc([N+](=O)[O-])c1
screen / no.	11	12	13	14	15	16	17	18	19	20
TNAP inh hi DEA	-4.1	-5.3	0.7	-5.3	-0.9	-5.4	-2.8	-3.1	1.2	0.1
APP 5'UTR act	16.3	21.6	10.0	5.5	23.9	-0.2	81.6	16.0	-5.3	11.4
FLuc act counter	0.9	1.1	1	1.1	0.8	1.1	0.6	1.1	1	0.9
TNAP act hiacc	1	1.1	1	1.1	1	1.1	1	1	1	1
FLuc inhib CS	10.1	-8.0	-4.3	-6.5	17.5	-8.3	44.3	-7.5	-3.0	6.2
NF-kB neuron act	1.73	1.08	1.02	0.97	1.56	1.05	3.46*	1.05	1.24	1.08
TNAP inh noacc	-0.4	-9.4	-15.9	-9.3	0.5	-4.0	-9.3	5.6	-5.7	-8.9
bIAP activator	0.9	1.1	0.9	1.1	1	0.9	1.1	1	1	0.9

21: O=C(CC(=O)NC1CCCCC1)N/N=C/c1ccc(Cl)cc1
22: COc1ccc(C(=O)c2ccc(N(C)C)cc2)c(OC)c1
23: CCC(Sc1ccc2nnc(-c3ccc(F)cc3)n2n1)C(=O)O (stereo unspecified)
24: CCOc1ccccc1Nc1nc(-c2sc(NC(=O)c3cccc(Cl)c3)nc2C)cs1
25: COC(=O)c1ccc(OCC2c3cc(OC)c(OC)cc3CCN2C(=O)c2ccco2)cc1 (stereo unspecified)
26: Cc1cccc(OCCCCCn2ccnc2)c1
27: COc1ccc(S(=O)(=O)N2CCCN(CC(=O)C(C)(C)C)CC2)cc1
28: Cc1cc(NC(=O)COC(=O)c2ccc(NS(=O)(=O)c3ccc(C)c(C)c3)cc2)no1
29: CCn1c(SCc2ccc([N+](=O)[O-])cc2)nnc1C(C)NC(=O)c1ccccc1Br (stereo unspecified)
30: Cn1cc([N+](=O)[O-])c(C(=O)Nc2ccc(Br)cn2)n1
screen / no.	21	22	23	24	25	26	27	28	29	30
TNAP inh hi DEA	0.4	-5.6	2.0	0.0	2.7	0.6	0.5	-2.6	1.2	1.0
APP 5'UTR act	21.1	-78.1	-13.2	78.5	-6.5	-3.8	11.8	0.3	-7.9	2.9
FLuc act counter	1.1	1	1	1.1	1	1.1	1.1	1.1	1	1
TNAP act hiacc	1	1.1	1	1	1	1	1	1	1	1
FLuc inhib CS	-6.8	-4.9	-4.2	-8.2	-0.8	-6.1	-5.9	-5.9	-3.0	-2.3
NF-kB neuron act	1.08	0.9	1.15	1.72	0.24	0.98	1.23	0.9	1.13	2.63
TNAP inh noacc	-7.5	-11.2	-3.8	-9.6	-6.4	-3.9	-5.9	-8.9	-1.4	3.3
bIAP activator	1	1	1.1	0.9	1.1	0.9	1	1	1.1	1

Sorted by molar mass (high to low): some entries from above.
29: CCn1c(SCc2ccc([N+](=O)[O-])cc2)nnc1C(C)NC(=O)c1ccccc1Br (stereo unspecified)
24: CCOc1ccccc1Nc1nc(-c2sc(NC(=O)c3cccc(Cl)c3)nc2C)cs1
25: COC(=O)c1ccc(OCC2c3cc(OC)c(OC)cc3CCN2C(=O)c2ccco2)cc1 (stereo unspecified)
27: COc1ccc(S(=O)(=O)N2CCCN(CC(=O)C(C)(C)C)CC2)cc1
18: COc1ccc(C2C(C(C)=O)=C(O)C(=O)N2CCCn2ccnc2)cc1 (stereo unspecified)
20: Cc1[nH]n(-c2ccccc2)c(=S)c1C=Nc1cccc([N+](=O)[O-])c1
23: CCC(Sc1ccc2nnc(-c3ccc(F)cc3)n2n1)C(=O)O (stereo unspecified)
30: Cn1cc([N+](=O)[O-])c(C(=O)Nc2ccc(Br)cn2)n1
21: O=C(CC(=O)NC1CCCCC1)N/N=C/c1ccc(Cl)cc1
17: CCc1ccc2nc(NC(=O)c3cc(C)on3)sc2c1
19: O=C(OCC(=O)N1CCOCC1)c1ccc(Cl)nc1
26: Cc1cccc(OCCCCCn2ccnc2)c1
screen / no.	29	24	25	27	18	20	23	30	21	17	19	26
TNAP inh hi DEA	1.2	0.0	2.7	0.5	-3.1	0.1	2.0	1.0	0.4	-2.8	1.2	0.6
APP 5'UTR act	-7.9	78.5	-6.5	11.8	16.0	11.4	-13.2	2.9	21.1	81.6	-5.3	-3.8
FLuc act counter	1	1.1	1	1.1	1.1	0.9	1	1	1.1	0.6	1	1.1
TNAP act hiacc	1	1	1	1	1	1	1	1	1	1	1	1
FLuc inhib CS	-3.0	-8.2	-0.8	-5.9	-7.5	6.2	-4.2	-2.3	-6.8	44.3	-3.0	-6.1
NF-kB neuron act	1.13	1.72	0.24	1.23	1.05	1.08	1.15	2.63	1.08	3.46*	1.24	0.98
TNAP inh noacc	-1.4	-9.6	-6.4	-5.9	5.6	-8.9	-3.8	3.3	-7.5	-9.3	-5.7	-3.9
bIAP activator	1.1	0.9	1.1	1	1	0.9	1.1	1	1	1.1	1	0.9

More compounds:
31: COc1ccc(/C=N/n2c(C)nnc2C)c(OC)c1OC
32: COc1ccc(N2CCN(C(=O)c3ccc(OCc4c(C)noc4C)c(OC)c3)CC2)cc1
33: Cc1ccc(S(=O)(=O)N2CCC(=O)N2)cc1
34: COc1ccc(C(=O)Nc2cc3c(cc2OC)CCCC3)cc1Br
35: CCOC(=O)c1cc2c(=O)n3cccc(C)c3nc2n(Cc2ccco2)c1=NC(=O)c1cccnc1
36: COc1ccc(C(=O)c2oc3nc(C)cc(C)c3c2N)cc1
screen / no.	31	32	33	34	35	36
TNAP inh hi DEA	-7.9	-0.6	-1.8	-3.8	1.7	0.8
APP 5'UTR act	4.6	-5.3	-13.1	-1.2	-3.2	-24.6
FLuc act counter	1	1	1.1	1.1	1	0.9
TNAP act hiacc	1.1	1	1	1	1	1
FLuc inhib CS	-2.1	-1.2	-8.6	-5.3	2.2	14.2
NF-kB neuron act	1.1	0.96	1.31	0.95	0.37	1.18
TNAP inh noacc	-5.6	-7.4	1.2	-3.3	-4.4	-0.9
bIAP activator	1	1	1	0.9	1	1
